Assay outcomes (PubChem BioAssay)
miR-21 reporter: qHTS Assay for Modulators of miRNAs and/orActivators of miR-21; HeLa miR-21 FLuc reporter, luciferase, 48 h; Potency, µM (doses to about 38.3 µM), without a hit: top-dose reporter change, positive = more light; 340,000 tested, under 10 active; active = well fitted rising curve with a large enough effect; inconclusive = small, poorly fitted or top-dose-only effect; inactive = no such curve, though single readings can be large or run the other way;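 also: % of control where 0% means no effect; miR-21 action dims this reporter so a rising signal means less miR-21 action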
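Luminescence from a firefly luciferase reporter carrying a miR-21 binding site downstream, stably expressed under a CMV promoter in HeLa cells that make miR-21 endogenously, reports miRNA modulation after 48 h compound exposure up to approximately 40uM final.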
Rango complex inh: qHTS Assay for Inhibitors of Rango (Ran-regulated importin-beta cargo) - Importin beta complex formation; Importin subunit beta-1 (Homo sapiens), Q14974; Rango CFP/YFP FRET sensor + importin beta, 45 min; Potency, µM (titrated, usually from 92.2 µM), for the others: at the highest dose inhibition of complex formation; 340,000 compounds, 0.031% hits; AID 540263, 2011; active = rising FRET ratio curve, often small or poorly fitted; inconclusive = mostly compound fluorescence or quenching in the first reads; inactive = flat curves in all reads;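 also: potency is read from the fitted curve at half-maximal effect; 0% = DMSO wells and 100% = buffer wells lacking importin beta; nearly all actives have a fitted effect of over 15% in size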
Target sequence (Q14974 whole entry, looked up): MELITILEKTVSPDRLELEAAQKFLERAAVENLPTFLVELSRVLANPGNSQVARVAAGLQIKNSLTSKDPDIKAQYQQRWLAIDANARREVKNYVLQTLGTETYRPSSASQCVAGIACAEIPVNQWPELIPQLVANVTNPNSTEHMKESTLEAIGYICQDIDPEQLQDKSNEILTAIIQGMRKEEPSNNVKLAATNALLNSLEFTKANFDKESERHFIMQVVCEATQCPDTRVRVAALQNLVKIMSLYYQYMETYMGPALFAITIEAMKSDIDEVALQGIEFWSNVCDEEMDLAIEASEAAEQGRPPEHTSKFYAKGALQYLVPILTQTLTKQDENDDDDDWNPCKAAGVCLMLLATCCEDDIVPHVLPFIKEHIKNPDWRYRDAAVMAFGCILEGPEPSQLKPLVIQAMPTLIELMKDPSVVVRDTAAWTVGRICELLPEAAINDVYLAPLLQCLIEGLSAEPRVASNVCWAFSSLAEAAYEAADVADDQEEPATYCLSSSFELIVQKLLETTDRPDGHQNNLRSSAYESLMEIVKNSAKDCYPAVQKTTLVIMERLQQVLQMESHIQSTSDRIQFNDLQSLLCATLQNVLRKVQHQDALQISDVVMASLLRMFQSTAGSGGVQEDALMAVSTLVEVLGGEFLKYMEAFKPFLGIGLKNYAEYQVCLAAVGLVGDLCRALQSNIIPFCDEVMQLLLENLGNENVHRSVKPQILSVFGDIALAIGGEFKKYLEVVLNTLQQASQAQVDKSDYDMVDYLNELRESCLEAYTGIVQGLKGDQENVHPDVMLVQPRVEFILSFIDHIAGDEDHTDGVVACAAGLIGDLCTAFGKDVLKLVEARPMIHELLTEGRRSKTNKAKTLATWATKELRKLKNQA
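FRET biosensor Rango (snurportin 1 IBB between N-terminal EYFP and C-terminal Cerulean), 50 nM in PBS/1 mM DTT/0.02% Tween-20/0.1% BSA, preincubated 5 min RT with compound; 0.125 microM importin beta added, 45 min RT, CFP/YFP FRET ratio read.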
GLA inh pH 4.5: qHTS Assay for Inhibitors of Human alpha-Galactosidase at pH 4.5; purified enzyme, 4-MU-alpha-Gal fluorescence, pH 4.5; activity change, negative = inhibition, % at 105 µM; 230,000 tested, under 10 active; AID 1467, 2008; inconclusive = small, poorly fitted or top-dose-only inhibition, or a rising curve; inactive = flat fitted curve, though single readings scatter; no compound was filed as active;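 also: 0% = full activity with enzyme and -100% = basal without enzyme; dose as in the result columns while the protocol names 77 µM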
Rango release inh: qHTS Assay for Inhibitors of RanGTP induced Rango (Ran-regulated importin-beta cargo) - Importin beta complex dissociation; Snurportin-1 (Homo sapiens) + GTP-binding nuclear protein Ran (Homo sapiens) + Importin …; Biochemical FRET Rango-importin beta, RanGTP-induced dissociation; Potency, µM (highest dose often 46.1 µM), without a hit: top-dose activity change, negative = inhibition; 340,000 compounds, 0.071% hits; AID 540253, 2011; active means falling FRET ratio curve, often poorly fitted, with flat reads before Ran was added; inconclusive means other falling curves, or compound fluorescence or quenching; inactive means flat or rising ratio curve;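 also: potency is read from the fitted curve at half-maximal effect; % of control where 0% means no effect; nearly all actives have a fitted effect of over 45% in size; -100% = wells without RanGTP and RCC1; the record marks most hits as doubtful in a second field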
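FRET read at 45 min, room temperature: inhibitors block the CFP/YFP signal rise when RanGTP (0.6 uM Ran, 2 mM GTP, 0.2 uM RCC1) frees Rango (0.1 uM) from importin beta (0.25 uM). Pre-read after 5 min compound exposure flags interference.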
The depositor's hits bear a star; ? = inconclusive; · = not tested or not shown; & = joins results of further samples; [ ] = remark or other dose.

SMILES	miR-21 reporter	Rango complex inh	GLA inh pH 4.5	Rango release inh
CCOC(=O)C1CCN(Cc2cc(Cl)c3ccccc3c2O)CC1	15%	-1.6%	·	0%
Cc1ccccc1CC1(CO)CCCN(Cc2cn[nH]c2-c2ccccc2)C1 (stereo not given)	-2%	0.7%	2	2%
COc1cc(OC)cc(C(=O)Nc2nc(-c3ccccc3)c(-c3ccccc3)o2)c1	-2%	5.2%	-14	12%
CC(=O)Nc1nnc(C2=COCCO2)o1	1%	1.0%	1	-3%
COc1ccc(OC)c(-c2csc(NC(=O)CSc3ccccc3)n2)c1	-12%	-1.4%	?	-3%
OCCOCCn1c(C(CO)Nc2nc(-c3ccc(F)cc3)cs2)nc2ccccc21 (stereo not given)	·	1.1%	·	4%
COc1cc(S(=O)(=O)NCc2ccccc2)ccc1Br	-2%	1.5%	6	-6%
O=C1N=C2SCCN2/C1=C\c1ccccc1Cl	-4%	4.4%	-11	-3%
CCOc1ccc(S(=O)(=O)N2CCCC(C(=O)N3CCN(c4ccccc4)CC3)C2)cc1 (stereo not given)	18%	-0.1%	·	0%
O=C(CN1C(=O)CSc2ccccc21)NCCC1=CCCCC1	-1%	-0.7%	-9	-17%
O=[N+]([O-])c1ccc(Cc2cncc(O)c2)cc1	-2%	0.1%	·	-1%
CNS(=O)(=O)c1cc(Br)ccc1S(=O)c1ccccc1C(=O)O (stereo not given)	0%	0.5%	-1	-10%

Overlap with the part before: three entries; new compounds follow.
SMILES	miR-21 reporter	Rango complex inh	GLA inh pH 4.5	Rango release inh
O=C(CN1C(=O)CSc2ccccc21)NCCC1=CCCCC1	-1%	-0.7%	-9	-17%
O=[N+]([O-])c1ccc(Cc2cncc(O)c2)cc1	-2%	0.1%	·	-1%
CNS(=O)(=O)c1cc(Br)ccc1S(=O)c1ccccc1C(=O)O (stereo not given)	0%	0.5%	-1	-10%
C#CCNC(=O)C1CCN(c2cc(C)nc(-c3ccccc3)n2)CC1	0%	-4.4%	12	1%
O/N=C1\CC/C(=N\O)c2nn(-c3ccccc3Cl)nc21	-2%	5.1%	-2	7%
c1ccc(-c2cc3c(nn2)CCc2nonc2-3)cc1	-18%	-0.4%	-8	-16%
COC(=O)c1ccc(Oc2ccc(C(F)(F)F)cn2)cc1	-2%	1.1%	5	14%
CCOc1cc(C(=O)N(CC)CC(=O)Nc2c(F)cccc2F)ccc1OCC(=O)N1CCCCC1	·	0.5%	·	10%
Cc1cc(NS(=O)(=O)c2ccc(NC(=O)c3ccco3)cc2)nc(C)n1	-1%	-1.3%	0	5%
c1csc(CNc2ncnc3ccc(-c4ccoc4)cc23)c1	·	-3.8%	·	4%
Cc1[nH]c2c(C)cccc2c1CC(=O)O	-3%	1.3%	-1	-4%
O=C(Nc1ccc(Cl)c(Cl)c1)c1cccc(S(=O)(=O)NCc2cccnc2)c1	21%	0.1%	-29	1%
O=C(CCSc1ccccc1)N1CCOCC1	-28%	1.1%	-1	0%
CCOC(=O)CN1C(=O)C(=O)N(Cc2ccccc2F)C1=O	-5%	-1.6%	·	27%
COc1ccc(C(=O)NCCN2CCN(C(=O)c3ccc(OC)c(OC)c3)CC2)cc1OC	0%	-2.8%	·	-21%
Cc1cccc(NNC(=O)c2c(F)cccc2Cl)c1	-6%	-0.9%	-2	-9%
COc1ccc(CC(NC(C)=O)C(=O)N2CCN(C(=O)Nc3ccc(Cl)cc3)CC2)cc1OC (stereo not given)	-12%	2.9%	-1	-4%
O=C(C[C@H]1C/C=C\CC[C@@H](Cc2ccc(F)cc2)C(=O)OC[C@H]2CCCN2C1=O)N[C@@H](CO)Cc1ccccc1	·	1.7%	·	0%
Cc1c(Cl)cccc1NC(=O)CN(C1CCCCC1)S(C)(=O)=O	-2%	0.1%	·	-8%
CCOc1ccccc1N(CC(=O)OC)S(C)(=O)=O	-4%	-1.9%	-8	-8%
O=C(NCCc1ccccc1C(F)(F)F)C1CCC(=O)N(CCCN2CCCC2=O)C1 (stereo not given)	-5%	5.5%	·	?
COc1ccc(CN(CC(=O)NCC2CCCO2)C(=O)CNS(=O)(=O)c2ccc(C)cc2)cc1 (stereo not given)	3%	1.5%	-1	-1%
COc1ccc(OCCn2cc(C=O)c3ccccc32)cc1	9%	-1.9%	·	7%
CCCCn1c(CN2CCN(c3ccc(F)cc3)CC2)nc2c1c(=O)n(C)c(=O)n2C	-6%	-3.4%	2	14%
CC(C)OC(=O)C1C(=O)CC(C)(O)C(C(=O)OC(C)C)C1c1cccc([N+](=O)[O-])c1 (stereo not given)	11%	2.3%	4	-9%
Cc1c(-c2ccc(Cl)cc2Cl)nc2ccccc2c1C(=O)NCCN1CCOCC1	0%	3.9%	·	14%
O=C(NCC1CCCO1)c1csc2c1CCCCC2 (stereo not given)	-26%	0.3%	0	-11%

Quoted at random: four records from the list
SMILES	miR-21 reporter	Rango complex inh	GLA inh pH 4.5	Rango release inh
C#CCNC(=O)C1CCN(c2cc(C)nc(-c3ccccc3)n2)CC1	0%	-4.4%	12	1%
c1ccc(-c2cc3c(nn2)CCc2nonc2-3)cc1	-18%	-0.4%	-8	-16%
COc1ccc(CC(NC(C)=O)C(=O)N2CCN(C(=O)Nc3ccc(Cl)cc3)CC2)cc1OC (stereo not given)	-12%	2.9%	-1	-4%
OCCOCCn1c(C(CO)Nc2nc(-c3ccc(F)cc3)cs2)nc2ccccc21 (stereo not given)	·	1.1%	·	4%

The listing continues:
SMILES	miR-21 reporter	Rango complex inh	GLA inh pH 4.5	Rango release inh
CCN(C(=O)c1cc2c(=O)[nH]c3ccc(C)cc3c2s1)c1ccccc1F	-1%	5.4%	2	-14%
CC(C)N(CC(N)=O)c1ccc(S(=O)(=O)N2CCCC2)cn1	·	3.8%	·	-9%
Cc1c(NC(=O)CSc2n[nH]c(=O)n2-c2ccccc2)c(=O)n(-c2ccccc2)n1C	0%	3.6%	-6	7%
Cc1ccccc1CNC(=O)CCCn1ncn2c(cc3occc32)c1=O	-5%&-10%	-1.3%	·	-15%
CC(=O)CCC(=O)N1CCCC(CNC(=O)c2ccc(-c3ccccc3)cc2)C1 (stereo not given)	-27%	0.4%	-12	20%
NS(=O)(=O)c1cc2c(cc1Cl)NC(CSCc1ccccc1)=NS2(=O)=O	-9%	1.8%	-1&7	17%
COc1ccc(Cl)cc1S(=O)(=O)NC(C)C(=O)NCc1ccncc1 (stereo not given)	-1%	-0.3%	·	-2%
Cc1cccc(S(=O)(=O)NCC2CCCO2)c1 (stereo not given)	-1%	3.0%	-5	18%
COc1cc(/C=C/C=C2/CC/C(=C/C=C/c3ccc(O)c(OC)c3)C2=O)ccc1O	·	?	·	?
O=C(O)CCN1C(=O)C2C3CC(C2C1=O)C1C(c2ccccc2)c2sc(=O)[nH]c2SC31 (stereo not given)	0%	?	6	?
COc1ccc(N2CCN(S(=O)(=O)c3ccc4c(c3)NC(=O)CS4)CC2)cc1	5%	2.6%	·	1%
c1ccc(C(c2nnnn2C2CCCC2)N2CCCCCC2)nc1 (stereo not given)	-1%	-2.5%	4	35%
O=C(Nc1ccncc1)Nc1cccc(C(F)(F)F)c1	24%	4.7%	·	-4%
CNC(=O)C12N=CNN=C1N(C)C(=O)N2C (stereo not given)	2%	?	1	36%
Cc1nc(NC(=O)c2ccc(-c3cc4ccccc4oc3=O)cc2)ccc1Br	-3%	0.8%	6	-2%
CCOC(=O)C1C(c2cc(OC)c(O)c(OC)c2)NC(=S)NC1(O)C(F)(F)F (stereo not given)	-7%	-1.8%	3	-11%
CCOc1ccc(NC(=O)COC(=O)c2cccnc2)cc1	-5%	-1.5%	-11	-8%
CCOC(=O)Cc1cc(=O)[nH]c(=O)[nH]1	-4%	2.8%	0	0%
c1ccc2c(-c3nnc4n3CCCCC4)c[nH]c2c1	5%	-1.1%	4	-2%
CC(C)N1C(=S)SC2CS(=O)(=O)C=C21 (stereo not given)	-1%	-0.1%	0	-9%
Cc1nnc(N/N=C/c2cc(C)n(-c3ccc(F)cc3)c2C)n1N	-2%	-2.1%	-5	-7%
CCN1CCN(C(CNS(=O)(=O)c2cccs2)c2cccnc2)CC1 (stereo not given)	0%	-3.6%	-2	-2%
COc1ccc(N=C/C=C2/C=C(c3ccccc3)OC(C)(C)O2)cc1	13%	-1.1%	1	9%
Cc1ccc(OCc2cc(C(=O)N3CCc4[nH]cnc4C3c3ccccn3)no2)cc1C (stereo not given)	-2%	0.8%	·	14%
CCOc1ccccc1-c1nc(-c2ccc(C)nc2OC)no1	-71%	-3.0%	-4	-23%
Cc1ccccc1OCc1nc(-c2ccc(NC(=O)c3ccc4c(c3)OCO4)cc2)no1	-26%	-1.4%	5	6%
CCOC(=O)c1[nH]ncc1CN1CCCC(C(=O)c2ccc(OC)c(OC)c2)C1 (stereo not given)	-3%	-0.1%	3	17%
Cc1ccc2nc(-c3ccc(NC(=O)CN4C(=O)NC(C)(c5ccc(OC(F)F)cc5)C4=O)cc3)sc2c1 (stereo not given)	-29%	-0.6%	10	5%
COc1ccc(/C=C2\Sc3ccc(C(=O)N4CCc5ccccc5C4)cc3N(C)C2=O)cc1	-1%	·	-5	·
COc1cc(OC)c(C(=O)Nc2ccc(S(=O)(=O)N3CCCCC3)cc2)cc1OC	·	1.3%	·	26%
O=C(O)CCCN=Cc1c(O)c2ccccc2oc1=O	13%	?	5	-4%
Cc1cccc(Nc2cnn(C34CC5CC(CC(CC(=O)O)(C5)C3)C4)c(=O)c2Cl)c1	-1%	-2.3%	-1	-17%
COc1cccc(NC(=O)COc2cccnc2[N+](=O)[O-])c1	·	1.7%	·	2%
COc1ccc(/C=N/NC(=O)c2cccnc2)cc1CN1CCN(c2ccc(F)cc2)CC1	1%	-0.2%	-1[21.1 µM]	?
O=C(OCc1nc2ccsc2c(=O)[nH]1)c1cccc(S(=O)(=O)N2CCOCC2)c1	·	-3.1%	·	-24%
COc1cccc(CNc2ccccn2)c1O	-39%	0.3%	·	4%
COc1ccc(NC(=O)C2=NNC(=O)CC2)cc1S(=O)(=O)N1CCCCC1	-4%	-0.1%	4	-9%
COc1ccc(C(CNC(=O)C(C)Sc2ccccc2)N2CCOCC2)cc1 (stereo not given)	·	-5.9%	·	-14%
Cc1c(NC(=O)NC2CCCCC2)cccc1[N+](=O)[O-]	-11%	-0.3%	1	25%
COc1ccc(-n2nnc3c(=O)n(CC(=O)N4CCC(Cc5ccccc5)CC4)cnc32)cc1	5%	-2.7%	-3	10%
N#Cc1c(-c2ccccc2)nc(N2CCN(Cc3ccccc3)CC2)[nH]c1=O	6%	-1.6%	·	-2%
Cc1cc(S(=O)(=O)Nc2ccc(C(=O)NCC(c3ccco3)N3CCCC3)cc2)ccc1F (stereo not given)	-1%	-1.2%	·	0%
Cc1cccc(N2CC(C(=O)NCc3ccco3)CC2=O)c1C (stereo not given)	·	0.3%	·	-3%
CC(=O)NCC(=O)NC(C(=O)Nc1ccc2c(c1)OCCO2)c1ccccc1 (stereo not given)	-7%	1.7%	-9	1%
O=c1c2ccccc2nc(-c2ccco2)n1Cc1ccccc1	-57%	-4.5%	7	18%
Cc1c(C(=O)OC(C)C)sc(NC(=O)C2CCCO2)c1C(=O)OC(C)C (stereo not given)	-1%	0.1%	6	34%
CCCCCC(=O)N1CC2(CC)CN(C(=O)CCCCC)CC(CC)(C1)C2=O	-2%	-2.3%	1	10%
O=C(CSc1nnc(-c2cccs2)n1C1CC1)NC1CCS(=O)(=O)C1 (stereo not given)	·	-1.5%	·	15%
Cc1ccc(OCC(=O)Nc2cccnc2Cl)cc1C	-56%	0.5%	·	-1%

Some of the compounds tested; the hit share may differ from the screen's.
